B2AR ag = human beta-2 adrenergic receptor agonism by FAP; Am2.2-beta2AR cells, FAP receptor internalization, flow cytometry; reference of the scale not given here; 340,000 tested, 0.43% active; P07550; response, % (no concentration beside the values); AID 504454;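 active = response above a set limit, near 3 SD of response in nonfluorescent compounds, cut at about 42% in these data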;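 also: stock transfer was 100 nL into about 11 µL; a reference agonist was the positive control; negative values mostly stem from fluorescent compounds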
Ecoli growth = blocks Escherichia coli growth; 330,000 tested, 0.21% active; OD600, 23 h; hits give low values; AID 1053175; OD600 absorbance (no concentration beside the values);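 active = OD600 absorbance below the run mean of sample wells minus 3.6 SD, in any replicate, cut at about 0.56 in these data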;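 also: stock transfer was 300 nL into about 60 µL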
HNF4A DNA FP = change in binding of human HNF4 alpha to DNA; 360,000 tested, 0.3% active; activity change, % at 10 µM; AID 1224865; HNF4a-FITC DNA binding, fluorescence polarization, 1 h; P41235; in the data active = activity change above about 30%, passing the limit was not always enough;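 also: controls were the assay level and a saturating level of protein; the project sought stronger binding though the title names inhibitors; some compounds called inactive have numbers as strong as hits; positive values seem to mean higher polarization but the record does not say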
Target sequence (P41235 whole entry, looked up): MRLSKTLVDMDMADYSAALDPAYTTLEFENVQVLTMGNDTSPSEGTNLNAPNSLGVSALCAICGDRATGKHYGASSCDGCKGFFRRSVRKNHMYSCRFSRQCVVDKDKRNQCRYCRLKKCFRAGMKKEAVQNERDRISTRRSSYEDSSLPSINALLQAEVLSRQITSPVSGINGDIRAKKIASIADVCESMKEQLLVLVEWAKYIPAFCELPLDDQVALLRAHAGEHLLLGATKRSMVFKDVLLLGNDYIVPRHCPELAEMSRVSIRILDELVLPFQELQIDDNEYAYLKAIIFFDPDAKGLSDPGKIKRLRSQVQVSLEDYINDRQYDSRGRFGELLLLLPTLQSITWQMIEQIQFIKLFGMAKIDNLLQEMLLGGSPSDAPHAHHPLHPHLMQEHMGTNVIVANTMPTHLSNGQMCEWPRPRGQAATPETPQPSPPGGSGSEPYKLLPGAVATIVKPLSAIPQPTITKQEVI
FGF22 binding = shifts melting point of recombinant human FGF22. Q9HCT0. recombinant FGF22 thermal shift, SYPRO orange fluorescence; percent of sucrose octasulfate shift, DMSO zero. calls only at 9.99 µM. 340,000 tested, 1.5% active. AID 651658;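 active = melting point raised past a set limit in the mean and every replicate; three in four hits are not shown here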
Target sequence (Q9HCT0 whole entry, looked up): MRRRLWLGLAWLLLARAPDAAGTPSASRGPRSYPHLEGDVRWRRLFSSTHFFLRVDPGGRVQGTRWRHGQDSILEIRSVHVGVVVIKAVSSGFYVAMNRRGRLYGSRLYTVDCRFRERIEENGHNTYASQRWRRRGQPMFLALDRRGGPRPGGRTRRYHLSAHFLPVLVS
rRNA inh HTS = selective bacterial rRNA inhibition in E. coli. E. coli WT GFP vs humanized-ribosome RFP mutants, fluorescence, 24 h; hits give low values; DMSO median 0, no signal -100. AID 720706. GFP signal change (wild-type ribosome), % (no concentration beside the values). 350,000 tested, 1.6% active;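 active = significant combined selectivity score with lowered wild-type GFP, culture density cut under 30%, mutant RFP and density less affected; inactive = any of these conditions unmet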; also: one replicate is shown; some compounds called inactive have numbers as strong as hits
UCH37 inh = inhibitors of human deubiquitinating enzyme UCH37. purified proteasome/UCH37, Ub-AMC cleavage fluorescence. inhibition, % (concentration not given with the values). 330,000 tested, 0.33% active. AID 588478;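 active = mean of two replicates above 20%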;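 also: 0% = compound-free wells with enzyme and 100% = wells lacking proteasome; stock transfer was 100 nL into about 20 µL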
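Test system – human UCH37 enzyme supplied as purified proteasome complex · Incubation – 30 min preincubation with enzyme, 25 min cleavage at room temperature · Detection – AMC fluorescence from Ub-AMC cleavage, excitation 355 nm, emission 460 nm · Benchmarks – no-proteasome wells (full inhibition) and compound-free wells (no inhibition)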
ALR inh = human ALR oxidase inhibition via reduced H2O2; P55789; 290,000 tested, 3.8% active; inhibition, % (test concentration not listed); purified ALR, DTT oxidation, H2O2 HRP-luminol luminescence; AID 485317;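 active = mean and each replicate at 75% or more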;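 also: stock transfer was 7.5 nL into about 7.5 µL; 0% = neutral wells and 100% = wells with inactivated enzyme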
Target sequence (P55789 whole entry, looked up): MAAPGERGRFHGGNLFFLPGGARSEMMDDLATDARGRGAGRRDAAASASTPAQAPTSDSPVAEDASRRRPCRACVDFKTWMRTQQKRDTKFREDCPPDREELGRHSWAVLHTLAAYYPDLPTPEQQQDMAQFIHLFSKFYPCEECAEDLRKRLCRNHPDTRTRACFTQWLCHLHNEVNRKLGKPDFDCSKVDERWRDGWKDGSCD
rRNA inh HTS OD600 = second read-out of rRNA inh HTS, no call of its own (marks repeat the call); OD600 change, %; measured here: OD600 growth;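 optical density of the mix in the first replicate; 0 = DMSO median and -100 = no signal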
rRNA inh HTS RFP = recorded beside rRNA inh HTS, whose call it bears; RFP signal change, %; measured here: RFP humanized mutant strains;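 first replicate; 0 = DMSO median and -100 = no signal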
Numbers without * were called inactive; i = inactive; . = no result given; & = joins results of further samples.

(1) C/C(=N\Nc1c(Cl)c(Cl)nc(C(=O)O)c1Cl)c1ccc(O)cc1
(2) CC(C)CC1C(=O)N(Cc2cn(CCC3OCCCO3)nn2)CCS(=O)(=O)N1Cc1ccc(-c2ccc(Cl)nc2)cc1 (stereo not drawn)
(3) Cc1ccc(NC(=O)c2cc(C)nc3ccccc23)c(Br)c1
(4) COC(=O)C1=C[C@@H](C(=O)OC)[C@@H]2C3=C(C(=O)[C@@]2(C)NC(=O)c2ccccc2)[C@H](c2ccccc2)[C@@H]2C(=O)NC(=O)[C@@H]2[C@@H]3C1
(5) COc1ccc(CNC(=O)CCS(=O)(=O)c2ccc3nc(C)sc3c2)cc1
(6) CC(=NNC(=O)COc1cccc(C)c1)c1cccnc1
(7) Cc1ccc(-c2c(C(=O)c3ccc(Br)cc3)[nH]c(N)c2C(=O)NCc2ccc(Cl)cc2)cc1
(8) COc1cccc(C(=O)/C=C/Nc2ccc(NC(C)=O)cc2)c1
(9) O=C(Nc1ccccc1N1CCOCC1)C1CCN(S(=O)(=O)c2cccc(C(F)(F)F)c2)CC1
(10) O=C(CNC(=O)Cc1ccccc1)N=Nc1c(O)n(Cc2ccc3c(c2)OCO3)c2ccccc12
Compound	1	2	3	4	5	6	7	8	9	10
B2AR ag	1	.	4	-8	.	1	.	-3	-6	0
Ecoli growth	.	.	0.65	.	.	0.67	.	0.7	0.66	0.73
HNF4A DNA FP	-1.1	0.4	-1.0	4.8	0.7	-3.4	-2.5	0.8	0.9	-1.9
FGF22 binding	i	i	i	.	i	i	i	i	.	i
rRNA inh HTS	-1	-5	13	2	0	2	3	9	.	6
rRNA inh HTS OD600	9	-17	8	2	12	-1	7	-3	.	29
rRNA inh HTS RFP	-0.6	0.1	3.6	-3.1	6.0	-0.7	15	2.7	.	5.3
UCH37 inh	.	.	1.4	1.2	.	5.5	.	8.0	2.7	6.1
ALR inh	.	.	-4	-8	.	0	.	-22	-23	.

(11) COc1ccc(CN(C)C(C)C(=O)NC2CCCc3ccccc32)cc1 (stereo not drawn)
(12) COc1ccc(NC(=O)C(c2ccccc2)n2c(=O)c(-c3cc4ccccc4[nH]3)nc3ccccc32)cc1 (stereo not drawn)
(13) Cc1nnc(N2C(=O)c3ccc(Br)cc3C2=O)s1
(14) O=C1NC2(CCCCC2)C(=O)N1/N=C/c1ccccc1Br
(15) CC(C)C(=O)Nc1nnc(SCC(=O)NC2CC2)s1
(16) COc1ccc(C)cc1N(C(=O)c1ccccc1)c1nc2ccccc2s1
(17) COc1ccc(/C=C2\CCCCC2=O)cc1
(18) COC(=O)CSc1ccc(S(=O)(=O)N2CCOCC2)cc1[N+](=O)[O-]
(19) CC(=O)Nc1ccc(NC(=O)COC(=O)C2CCCCC2)cc1
(20) COc1ccc(OCC(=O)N2CCN(C(=O)c3cccs3)CC2)cc1
Compound	11	12	13	14	15	16	17	18	19	20
B2AR ag	-1	.	5	-3	-7	11	-2	0	4	0
Ecoli growth	0.73	.	0.65	.	0.68	0.72	0.64	0.66	0.7	0.71
HNF4A DNA FP	8.2	-0.4	-2.9	2.8	2.0	-1.7	-1.2	0.3	-0.1	1.1
FGF22 binding	i	i	i	i	.	.	i	i	i	.
rRNA inh HTS	-13	15	11	-7	.	.	2	9	0	.
rRNA inh HTS OD600	-10	9	16	-7	.	.	7	2	1	.
rRNA inh HTS RFP	-1.7	2.9	0.0	5.9	.	.	-1.1	-6.0	-2.0	.
UCH37 inh	-0.8	.	3.6	.	-0.3	0.7	9.1	2.1	2.1	2.4
ALR inh	-1	.	9	7	-10	-5	9	-9	-4	-3

(21) CSc1ccccc1OCc1cc(C(=O)N2CCN(c3ncccn3)CC2)no1
(22) COc1ccc([N+](=O)[O-])cc1N(CC(O)CN1CCOCC1)S(=O)(=O)c1ccccc1 (stereo not drawn)
(23) CCSC(=O)NC1CCCCC1
(24) CC(=O)NS(=O)(=O)c1ccc(NC(=O)[C@@H]2CCCN2S(=O)(=O)c2ccc(Cl)cc2)cc1
(25) COc1ccc(/C=N/N=C2/NC(=O)C(c3ccccc3)S2)c(OC)c1 (stereo not drawn)
(26) CCN(C(=O)c1ccnn1C)c1ccccc1
(27) C[C@@H]1CCCCO[C@H](CN(C)C(=O)c2ccccc2)[C@@H](C)CN([C@H](C)CO)C(=O)c2cc(NC(=O)NC3CCCCC3)ccc2O1
(28) CC(=O)Nc1ccc(NC(=O)CSc2ncnc3sc(C)c(C)c23)cc1
(29) CSc1ccc(CN2CCC(C)(Oc3ccccc3C)C2)cc1 (stereo not drawn)
(30) NC(=O)c1ccccc1NC(=O)c1ccc2ccccc2c1
Compound	21	22	23	24	25	26	27	28	29	30
B2AR ag	-4	-1	-5	1	-1	8	.	4	.	-11
Ecoli growth	0.69	0.65	0.67	0.64	.	0.71	.	0.72	.	0.59
HNF4A DNA FP	0.1	0.2	-3.0	-2.1	1.9	-0.5	-3.5	-0.9	-1.9	-2.0
FGF22 binding	i	i	i	i	.	.	i	i	i	i
rRNA inh HTS	-13	1	1	1	.	.	6&-2	3	-16	-14
rRNA inh HTS OD600	-31	8	2	-2	.	.	-9&5	1	-11	-8
rRNA inh HTS RFP	1.0	-3.1	-2.5	0.4	.	.	1.8&-2.0	-0.4	-0.3	-4.4
UCH37 inh	-5.6	6.3	0.2	0.1	.	-1.5	.	1.3	.	-17
ALR inh	-12	.	8	5	-10	-3	.	-5	.	-2

Part of the list above, as labelled records:
21) CSc1ccccc1OCc1cc(C(=O)N2CCN(c3ncccn3)CC2)no1
  B2AR ag: -4 | Ecoli growth: 0.69 | HNF4A DNA FP: 0.1 | FGF22 binding: i | rRNA inh HTS: -13 | rRNA inh HTS OD600: -31 | rRNA inh HTS RFP: 1.0 | UCH37 inh: -5.6 | ALR inh: -12

24) CC(=O)NS(=O)(=O)c1ccc(NC(=O)[C@@H]2CCCN2S(=O)(=O)c2ccc(Cl)cc2)cc1
  B2AR ag: 1 | Ecoli growth: 0.64 | HNF4A DNA FP: -2.1 | FGF22 binding: i | rRNA inh HTS: 1 | rRNA inh HTS OD600: -2 | rRNA inh HTS RFP: 0.4 | UCH37 inh: 0.1 | ALR inh: 5

Later entries
(31) Cc1cccc(C(=O)N2CCc3cc(-c4nc(NC(=O)CN5CCCC5)sc4C)ccc32)c1
(32) O=C(c1ccccc1F)N1CCC2CC1c1cc(-c3ccc4c(c3)OCO4)ccc12 (stereo not drawn)
(33) CCN1C(=O)/C(=C/c2cccs2)N(C)C1=S
(34) COc1ccc(S(=O)(=O)N2CCN(C)CC2)cn1
(35) CSc1cccc(NC(=O)CCC(=O)O)c1
(36) CS(=O)(=O)c1ccccc1COC(=O)Nc1ccc(Cl)cc1
(37) CCCNC(=O)CCc1c(C)nc2c(c(C)nn2-c2ccccc2)c1C
(38) O=C(O)c1cc(S(=O)(=O)N2CCCCC2)ccc1N1CCCC1
(39) O=C(Nc1nc2cc3c(cc2s1)OCO3)c1ccc(N2C(=O)CCC2=O)cc1
(40) Cc1ccccc1C(=O)OCc1nnc(-c2ccc(Cl)cc2)o1
Compound	31	32	33	34	35	36	37	38	39	40
B2AR ag	1	.	-7	5	20	4	3	15	12	-12
Ecoli growth	0.59	.	0.72	0.69	0.64	0.63	0.66	0.68	0.73	0.71
HNF4A DNA FP	5.2	0.5	2.1	-0.1	2.5	-0.3	-2.1	3.7	6.7	1.2
FGF22 binding	i	i	.	i	i	.	i	i	i	i
rRNA inh HTS	-4	-10	.	0	1	.	5	2	-2	-25
rRNA inh HTS OD600	-14	-12	.	10	0	.	-9	7	1	-42
rRNA inh HTS RFP	6.1	-6.7	.	-0.9	4.6	.	0.1	-3.9	-2.0	-3.0
UCH37 inh	-0.6	.	4.4	0.3	2.7	-2.0	-15	3.6	-35	3.6
ALR inh	-8	.	-19	-2	-6	-16	1	1	.	-2

(41) COc1cc(/C=N/OCC(=O)NC2CCS(=O)(=O)C2)ccc1OC(F)F (stereo not drawn)
(42) Cc1sc2ncnc(SCC(=O)N(C)C3CCS(=O)(=O)C3)c2c1C (stereo not drawn)
(43) Cc1ccc(N(C(C)C(=O)N2CCCCC2)S(C)(=O)=O)cc1C (stereo not drawn)
(44) CCn1c(C)c(C)c2cc(C(=O)NCCN3CCCCCC3)ccc21
(45) Cc1nn(-c2ccccc2)c2nc(-c3cccs3)cc(C(=O)NN)c12
(46) COc1cc(C#Cc2c(-c3ccccc3OC)oc3ccccc23)cc(OC)c1
(47) CCOC(=O)N1CCN(C(=O)C2CCCN(S(=O)(=O)c3cccnc3)C2)CC1 (stereo not drawn)
(48) O=C(c1ccco1)N(Cc1ccc2c(c1)OCO2)Cc1cc2cc3c(cc2[nH]c1=O)OCO3
(49) O=C(c1ccc(S(=O)(=O)N2CCCCCC2)cc1)N1CCN(c2ccccc2F)CC1
(50) O=c1nc(N2CCOCC2)nc2n1CCO2
Compound	41	42	43	44	45	46	47	48	49	50
B2AR ag	-8	-4	-5	17	-18	4	-7	0	-6	0
Ecoli growth	.	0.66	0.71	0.7	0.72	0.69	0.65	0.75	0.67	0.77
HNF4A DNA FP	-3.7	2.4	4.3	17	3.7	6.6	-1.4	-1.3	-0.8	0.8
FGF22 binding	i	i	.	i	i	i	i	i	i	.
rRNA inh HTS	6	20	.	10	-21	8	22	11	1	.
rRNA inh HTS OD600	-1	9	.	6	-18	15	19	3	23	.
rRNA inh HTS RFP	-0.3	-1.2	.	17	-6.3	3.3	0.8	-0.9	0.0	.
UCH37 inh	.	2.4	-2.1	3.3	-24	-41	1.1	-12	1.6	0.3
ALR inh	-4	-2	1	-5	-5	2	-4	-1	.	-3

(51) CCOC(=O)[C@]12CCC=C1N(Cc1ccc(Cl)cc1Cl)C(=O)[C@H](CC(=O)NCC1CCCCC1)C2
(52) O=C(/C=C/Nc1nccs1)C(F)(F)Cl
(53) O=C(CNC(=O)c1ccc(Br)o1)Nc1ccc(F)c(S(=O)(=O)N2CCOCC2)c1
(54) CCO[C@@H]1OC(C(=O)NCc2ccccc2)=C[C@H](C(C)(C)C)[C@H]1CCCO
(55) CC1CCC/C(=C(\C#N)c2nc(-c3cc4ccccc4oc3=O)cs2)C1 (stereo not drawn)
(56) O=C(Cn1c(CO)nc2ccccc21)NCCc1ccccc1
(57) NNc1nc(NCc2ccccc2)nc(N2CCOCC2)n1
(58) CC(O)CCC(=O)NNC1CC(=O)N(c2ccccc2)C1=O (stereo not drawn)
(59) CCN(C(=O)CCN1C(=O)/C(=C/c2ccccc2)SC1=S)C1CCS(=O)(=O)C1 (stereo not drawn)
(60) C=CCn1c(O)c(N=NC(=O)CNC(=O)Cc2ccccc2)c2ccccc21
(61) CCOc1ccc(Br)cc1/C(C)=N\NC1=NCCN1
Compound	51	52	53	54	55	56	57	58	59	60	61
B2AR ag	.	0	1	6	-3	7	1	11	-8	-6	-2
Ecoli growth	.	0.73	0.71	.	0.69	0.69	0.79	0.74	0.68	0.64	.
HNF4A DNA FP	-0.1	2.2	3.6	-1.5	3.1	-5.4	-0.8	-2.0	-3.9	3.6	-0.3
FGF22 binding	i	i	i	i	.	i	.	i	i	i	.
rRNA inh HTS	16	7	0	5	.	-5	.	.	-10	-2	.
rRNA inh HTS OD600	5	1	-3	2	.	0	.	.	-4	-7	.
rRNA inh HTS RFP	0.0	6.8	1.3	1.9	.	1.4	.	.	-1.7	-5.7	.
UCH37 inh	.	11	4.7	0.3	-36	4.9	3.0	5.7	12	7.0	.
ALR inh	.	.	.	-5	-13	-6	-3	32	-2	-10	9

Compound activity from PubChem BioAssay.

An excerpt; the hit share may differ from the screen's.
